Rango release inh – prevents RanGTP from dissociating the Rango-importin beta complex. AID 540253. hit rate 0.071% among 340,000. O95149+P62826. Potency, µM (series often up to 46.1 µM), inactives show top-dose activity change, negative = inhibition. Biochemical FRET Rango-importin beta, RanGTP-induced dissociation; active means falling FRET ratio curve, often poorly fitted, with flat reads before Ran was added; inconclusive means other falling curves, or compound fluorescence or quenching; inactive means flat or rising ratio curve;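 further: potency means the concentration at half of the fitted maximal effect; % of control where 0% means no effect; nearly all actives have a fitted effect of over 45% in size; -100% = wells without RanGTP and RCC1; the record marks most hits as doubtful in a second field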
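Quantitative HTS using a FRET biosensor: 0.1 uM Rango, 0.25 uM importin beta, 0.6 uM Ran, 2 mM GTP, 0.2 uM RCC1 final, PBS with DTT, Tween-20 and BSA. Post-read taken 45 min after Ran addition.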
miR-21 reporter – miR-21 reporter, rising signal; HeLa miR-21 FLuc reporter, luciferase, 48 h; Potency, µM (doses to about 38.3 µM), for inactives: at the highest dose reporter change, positive = more light; 340,000 tested, under 10 active; AID 2288; active = well fitted rising curve with a large enough effect; inconclusive = small, poorly fitted or top-dose-only effect; inactive = no such curve, though single readings can be large or run the other way;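 further: % of control where 0% means no effect; miR-21 action dims this reporter so a rising signal means less miR-21 action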
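HeLa miR-21-FLuc reporter line, endogenous miR-21; 2000 cells/well in DMEM/10% FBS; compound titration up to ~40uM final, 48 h, 37 degree Celsius; luciferase detection reagent, 15 min lysis, CCD luminescence.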
Rango-impB inh – Rango-importin beta binding inhibition; Q14974; Rango CFP/YFP FRET sensor + importin beta, 45 min; Potency, µM (series often up to 92.2 µM), inactives show at the top dose inhibition of complex formation; hit rate 0.031% among 340,000; AID 540263; active = rising FRET ratio curve, often small or poorly fitted; inconclusive = mostly compound fluorescence or quenching in the first reads; inactive = flat curves in all reads;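 further: potency means the concentration at half of the fitted maximal effect; 0% = DMSO wells and 100% = buffer wells lacking importin beta; nearly all actives have a fitted effect of over 15% in size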
Target sequence (Q14974 whole entry, looked up): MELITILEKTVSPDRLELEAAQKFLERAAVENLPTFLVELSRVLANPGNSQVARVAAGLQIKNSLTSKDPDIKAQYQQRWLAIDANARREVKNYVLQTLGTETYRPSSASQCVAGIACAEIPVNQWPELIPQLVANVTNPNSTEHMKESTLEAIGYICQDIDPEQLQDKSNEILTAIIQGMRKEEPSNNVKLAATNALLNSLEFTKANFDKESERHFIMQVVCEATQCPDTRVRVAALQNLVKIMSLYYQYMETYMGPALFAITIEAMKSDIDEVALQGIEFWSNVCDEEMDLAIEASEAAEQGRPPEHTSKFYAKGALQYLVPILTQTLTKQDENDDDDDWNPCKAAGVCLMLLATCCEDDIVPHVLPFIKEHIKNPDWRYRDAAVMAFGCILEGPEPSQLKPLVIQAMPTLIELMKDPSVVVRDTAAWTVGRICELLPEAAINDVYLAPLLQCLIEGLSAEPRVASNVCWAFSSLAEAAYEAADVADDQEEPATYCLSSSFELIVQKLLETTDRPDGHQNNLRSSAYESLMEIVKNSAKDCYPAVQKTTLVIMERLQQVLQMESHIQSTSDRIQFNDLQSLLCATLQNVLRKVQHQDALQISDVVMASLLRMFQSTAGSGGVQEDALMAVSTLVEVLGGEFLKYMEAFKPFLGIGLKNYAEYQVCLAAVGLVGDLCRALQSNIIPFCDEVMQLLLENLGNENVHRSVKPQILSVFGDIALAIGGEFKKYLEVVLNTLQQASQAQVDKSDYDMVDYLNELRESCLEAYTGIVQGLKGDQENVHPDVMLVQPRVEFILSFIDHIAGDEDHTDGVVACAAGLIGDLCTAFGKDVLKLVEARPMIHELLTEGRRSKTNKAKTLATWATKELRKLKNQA
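FRET biosensor (snurportin 1 IBB flanked by EYFP and cerulean), 50 nM, with compound 5 min, then 0.125 microM importin beta in PBS, 1 mM DTT, 0.02% Tween-20, 0.1% BSA. CFP/YFP ratio read after 45 min at room temperature; pre-read flags interference.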
GLA inh pH 4.5 – blocks human alpha-galactosidase A at pH 4.5 | 230,000 tested, under 10 active | activity change, negative = inhibition, % at 105 µM | purified enzyme, 4-MU-alpha-Gal fluorescence, pH 4.5 | AID 1467 | P06280; inconclusive = small, poorly fitted or top-dose-only inhibition, or a rising curve; inactive = flat fitted curve, though single readings scatter; no compound was filed as active;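 further: 0% = full activity with enzyme and -100% = basal without enzyme; dose as in the result columns while the protocol names 77 µM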
An asterisk follows results filed as active; ? = inconclusive; / = no result given. This is a subset; rates above refer to the full screens.

Below each compound: Rango release inh, miR-21 reporter, Rango-impB inh, GLA inh pH 4.5
CCCc1nc2ccc(NC(=O)c3cccs3)cc2c(=O)n1Cc1ccccc1Cl
    7%, -7%, -3.4%, -18
O=C(CSc1nnc(NC(=O)c2ccco2)s1)Nc1ccc(F)cc1F
    9%, 1%, 2.3%, /
CC(c1ccccc1)C1CC(=O)N(c2ccc([N+](=O)[O-])cc2)C1=O (stereo unspecified)
    -15%, -4%, -2.1%, /
COc1cccc(CN2CCN(Cc3nc(C(C)C)cs3)CC2CCO)c1 (stereo unspecified)
    2%, 7%, -1.2%, 6
Cc1cc(=O)n2nc(N3CCCC(C(=O)NCCc4ccccc4)C3)sc2n1 (stereo unspecified)
    6%, -9%, -0.2%, 5
COc1ccccc1C(CNC(=O)c1cccc(NS(=O)(=O)c2ccc(C)c(F)c2)c1)N1CCCC1 (stereo unspecified)
    -2%, /, -2.2%, /
CCOC(=O)/C(C#N)=C/c1c(N2CCN(c3ccccc3)CC2)nc2c(C)cccn2c1=O
    0%, -2%, -1.1%, /
Cc1cc(C)cc(C(=O)Nc2c3c(nn2C(C)(C)C)CS(=O)(=O)C3)c1
    1%, -4%, 6.3%, /
O=C(COC(=O)CNC(=O)c1ccc(-c2ccccc2)cc1)NCc1ccco1
    3%, -3%, -1.1%, 1
CC(C)c1cccc(OCCCCN(C)C)c1
    2%, -9%, 2.5%, 3
Cc1ccc2oc(=O)c3cnn(CC(=O)N4CCCCC4C)c3c2c1 (stereo unspecified)
    ?, -4%, 2.0%, 4
CCOC(=O)C1CCCN(C(=O)c2cc(Nc3ccc(OC)c(OC)c3)nc3ccccc23)C1 (stereo unspecified)
    -9%, -2%, 3.0%, 3
CCOC(=O)N1CCN(C(=O)CSc2nc3c(cnn3-c3ccc(C)cc3)c(=O)[nH]2)CC1
    6%, 0%, -1.5%, 2
O=C(CCC(=O)N1CCCC1)Nc1nnc(C(F)(F)F)s1
    9%, -4%, -5.3%, -2
O=c1c2ccccc2nnn1Cc1ccccn1
    30%, -7%, -4.2%, 6
COc1cc([C@@H]2c3cc4c(cc3[C@@H](O)[C@@H](CO)[C@@H]2CO)OCO4)cc(OC)c1O[Si](C)(C)C(C)(C)C
    /, ?, /, -9
COc1ccc(N(C(=O)c2snc(C(N)=O)c2N)C(C(=O)NC2CCCC2)c2ccco2)cc1OC (stereo unspecified)
    2%, -1%, 1.2%, /
CCN(CCCCCCN)c1ccc2c(=O)[nH][nH]c(=O)c2c1
    1%, 0%, -0.3%, 5
O=C(NCCNc1ccc([N+](=O)[O-])cc1)c1ccccc1F
    -2%, -1%, -5.5%, /
CCOc1ccc(CCNC(=O)CCNC(=O)c2ccc(Br)cc2)cc1OCC
    15%, 1%, -0.3%, /
COc1cccc(CN(C)CC(=O)NCc2ccc(F)cc2)c1OC
    -5%, -1%, 2.1%, /
CCCCn1c(CN2CCN(C(=O)c3ccco3)CC2)nc2c1c(=O)n(C)c(=O)n2C
    -11%, -8%, 3.1%, 1
O=S(=O)(Nc1ccc(N2CCCCC2)cc1)c1ccc(F)cc1
    0%, -1%, -3.4%, 0
Cc1c(CCC(=O)NCCC(=O)O)c(=O)oc2cc3occ(-c4ccccc4)c3cc12
    -13%, 1%, -0.3%, /
CC(C)C[C@H](NC(=O)c1nc[nH]c1C(=O)N[C@@H](CC(C)C)C(=O)OC(C)(C)C)C(=O)OCc1ccccc1
    20%, 3%, -3.7%, /
COC(=O)c1cccc(S(=O)(=O)N2CCC(n3nnc4cc(F)ccc43)CC2)c1
    3%, 1%, 3.5%, -13
COc1cccc(NC(=O)c2cccnc2)c1
    12%, -21%, -1.8%, -23
CCn1c(SCc2nc3ccccc3c(=O)[nH]2)nnc1C(C)NC(=O)c1ccccc1F (stereo unspecified)
    4%, 0%, -0.2%, 3
CC(C)CNc1nc(S(=O)(=O)c2ccccc2)c(Cl)s1
    -13%, 1%, -0.7%, -9
O=c1c2[nH]c3ccc(F)cc3c2ncn1CCCn1ccnc1
    36%, -5%, 0.0%, -2

Continued; the last 5 above are carried over.
Below each compound: Rango release inh, miR-21 reporter, Rango-impB inh, GLA inh pH 4.5
COC(=O)c1cccc(S(=O)(=O)N2CCC(n3nnc4cc(F)ccc43)CC2)c1
    3%, 1%, 3.5%, -13
COc1cccc(NC(=O)c2cccnc2)c1
    12%, -21%, -1.8%, -23
CCn1c(SCc2nc3ccccc3c(=O)[nH]2)nnc1C(C)NC(=O)c1ccccc1F (stereo unspecified)
    4%, 0%, -0.2%, 3
CC(C)CNc1nc(S(=O)(=O)c2ccccc2)c(Cl)s1
    -13%, 1%, -0.7%, -9
O=c1c2[nH]c3ccc(F)cc3c2ncn1CCCn1ccnc1
    36%, -5%, 0.0%, -2
CC(=O)c1ccc(NC(=O)C[n+]2cccc(C)c2)cc1
    9%, 4%, 2.9%, /
COc1ccc(Nc2ncnc3c2cnn3Cc2ccc(C)cc2)cc1
    -7%, 8%, -2.5%, -7
Cc1occc1C(=O)O/N=C(\N)c1ccc(Cl)cc1
    -2%, -41%, 13%, -2
COc1ccc(S(=O)(=O)N(Cc2ccccc2)c2ccccc2C(=O)N2CCOCC2)cc1
    -12%, 28%, -1.4%, /
O=C(NC(Cc1ccc(F)cc1)C(=O)O)c1ccccc1 (stereo unspecified)
    -4%, -2%, -0.5%, -4
Cc1cc(C)cc(C(=O)N2CC(C)SC2=Nc2cccc(S(=O)(=O)N(C)C)c2)c1 (stereo unspecified)
    -12%, -4%, 3.3%, -6
CCc1ccc(CC)c(S(=O)(=O)Nc2ccc(O)c(C(=O)O)c2)c1
    1%, -7%, -0.1%, -1
O=C1S/C(=C\C=C\c2ccco2)C(=O)N1c1ccc(O)cc1
    -23%, -36%, -0.3%, -22
Cc1cc(Cl)ccc1OCC(=O)N/N=C1\CCCc2ccccc21
    1%, -1%, -2.2%, -2
CCOC(=O)CC(=O)CSc1nc2c(cc1C#N)CCCCC2
    ?, -49%, ?, -10
CCOC(=O)N1CCC(C(=O)NNC(=O)c2ccc(Cl)cc2Cl)CC1
    -10%, 1%, 1.3%, /
CC(C)(C)c1ccccc1OCC(O)CN1CCN(c2ccccn2)CC1 (stereo unspecified)
    1%, 0%, -0.9%, /
COc1cc(NC(=O)C2CC(=O)N(CCc3ccccc3)C2)cc(OC)c1 (stereo unspecified)
    0%, /, 3.7%, /
COc1ccc(NC(=O)Cc2ccccc2F)cn1
    -8%, -20%, 1.1%, 1
COc1cc(C=NCC2OCCc3ccccc32)cc(OC)c1 (stereo unspecified)
    4%, -5%, -4.6%, -1
COc1nnc(-c2ccc(N3CCOCC3)c(NC(=O)c3ccco3)c2)c2ccccc12
    0%, -17%, -0.1%, -9
Cc1ccc(NC(=O)[C@@H]2CCCN2S(=O)(=O)c2ccccc2F)cc1
    10%, -2%, 0.2%, 9
CCc1cnccc1CCC(=O)Nc1ccccc1C
    35%, /, -2.8%, /
COc1ccc(-c2c(NC(=O)C(C)C)n(C)c3ccccc3c2=O)cc1
    16%, 1%, -8.2%, 1
Cc1cnccc1CN(C)C(=O)CC1C(=O)NCCN1CC1CCCCC1 (stereo unspecified)
    -8%, 1%, -1.4%, -7
Cc1ccccc1NC(=O)c1c([N+](=O)[O-])c(C(C)(C)C)nn1C
    1%, -6%, -0.2%, -11
O=C(CSc1nnc(NC(=O)c2c(F)cccc2F)s1)NCc1ccco1
    -4%, /, 0.3%, /
CCC(C)NC(=O)CSc1nc2c(sc(=S)n2-c2cc(Cl)ccc2OC)c(=O)[nH]1 (stereo unspecified)
    25%, 1%, -2.5%, /
Cc1cc[n+](CC(=O)c2cc3ccccc3oc2=O)cc1
    -8%, -8%, -1.9%, 6
O=C(Cc1c[nH]c2ccccc12)NCc1ccccc1F
    13%, -23%, -3.4%, -6
CC1CCN(Cc2c(C(=O)N/N=C/c3ccc(OC(C)C)cc3)nnn2-c2nonc2N)CC1
    -13%, 1%, 1.5%, /
Cc1cc(=O)[nH]c(SCC(=O)/C=C2\N(C)c3ccccc3C2(C)C)n1
    -21%, 17%, -3.6%, -9
COC(=O)COc1ccc(S(=O)(=O)NCc2ccco2)cc1Cl
    -17%, 1%, -0.3%, -1
Cc1ccc2c(C)nc(NC3=NCN(CCc4ccccc4)CN3)nc2c1
    /, 4%, /, -19
CCCn1ncc(/C=N/O)c1C
    0%, 16%, 1.2%, -5
c1nc(CCO[C@H]2CCCCO2)cc2cc3c(cc12)OCO3
    -11%, /, 3.1%, /
COCCNS(=O)(=O)c1ccc2c(c1)C(=NO)c1cc(S(=O)(=O)NCCOC)ccc1-2
    0%, 13%, -4.0%, -4
Cc1cc(/C=N/NC(=O)c2ccncc2)c(C)n1-c1cccc(C(F)(F)F)c1
    -2%, 0%, 0.1%, -6
CCOc1ccc(-c2ccc(SCC(=O)N3CCOCC3)nn2)cc1
    -14%, -20%, ?, 1
COc1ccc(OCC(=O)N2CCC3(CC2)CC(=O)c2ccccc2O3)cc1
    -9%, /, -0.9%, /
COC(=O)C1CCCN1S(=O)(=O)c1ccc2ccccc2c1 (stereo unspecified)
    1%, -1%, 6.9%, 9
COC(=O)c1ccc(-c2ncc[nH]2)cc1
    9%, -15%, 0.5%, 9
COC(=O)c1sc2ncccc2c1OCc1cccc(Cl)c1
    -2%, -3%, -0.2%, -5
CC1=C(C(=O)OCc2ccccc2)C(c2ccsc2)C(C#N)=C(N)O1 (stereo unspecified)
    ?, -14%, -2.1%, -5
CCOC(=O)c1[nH]c(C)c(C(=O)OCCN2C(=O)c3ccccc3C2=O)c1C
    10%, -5%, 3.5%, 8
COc1cc(/C=C/C(=O)OCC(=O)NC(=O)NC(C)C)ccc1OCC#N
    -13%, -2%, -0.8%, -2
CC(Oc1ccc2c(c1)c1ccnc3c4ccccc4c(=O)n2c13)C(=O)NCCN1CCOCC1 (stereo unspecified)
    -6%, 4%, -7.9%, /
C/C(=N\NC(=O)Nc1ccccc1)c1ccc2ccccc2c1
    2%, -12%, -2.0%, 1
Cc1nc(NCCc2ccccc2)c(C#N)c(C)c1[N+](=O)[O-]
    -8%, -6%, 3.7%, 6
CN/C=C1\C(=O)C(C)(C)Oc2ccc3ccc(=O)oc3c21
    -11%, -5%, 4.2%, 0
O=C(CN1CCCCCC1)N/N=C/c1ccc2ccccc2c1
    -2%, -20%, 5.0%, /
Cc1cc(C)cc(OCC(=O)N2CCN(c3ncccn3)CC2)c1
    0%, /, 0.6%, /
N#Cc1ccc(-c2nnnn2-c2ccc3c(c2)OCO3)cc1
    0%, -5%, 3.4%, 4
CC(=O)C1=C(O)C(=O)N(Cc2ccco2)C1c1ccccc1 (stereo unspecified)
    -13%, -7%, 3.6%, 2
COc1ccc(/C=C2\Sc3ccc(C(=O)NC4CC4)cc3N(C)C2=O)cc1OC
    -28%, 16%, ?, /
CCN(CC(=O)Nc1c(F)cccc1F)C(=O)c1cn2ccccc2n1
    4%, /, -0.7%, /
COc1cc(CCC(=O)OCC(=O)Nc2sccc2C(N)=O)cc(OC)c1OC
    -4%, /, -2.4%, /
Cc1nnc(SCC(=O)NCCOc2ccc(Cl)cc2)n1-c1ccccc1
    -14%, 0%, ?, 5
CCOc1cccc(CN2CCC(n3nccc3NC(=O)C3CC3)CC2)c1O
    22%, -5%, -2.4%, /
N#Cc1c(-c2cccnc2)c2c([nH]c1=O)-c1ccccc1OC2
    ?, -2%, ?, ?
COc1ccc(S(=O)(=O)N2CCCCC2)cc1NC(=O)Cc1cccc(C(F)(F)F)c1
    ?, /, -3.2%, /
Oc1ccc(-c2nnc(Nc3ccccc3)c3ccccc23)cc1
    23%, 9%, 0.9%, -9
CC(OC(=O)c1nsc(Cl)c1Cl)C(=O)NC(C)(C)C (stereo unspecified)
    9%, -7%, -0.1%, -1
CC(=O)c1ccc(NC(=O)Cn2cnc(S(=O)(=O)N3CCCC3)c2)cc1
    ?, -7%, -1.0%, /
Cc1ccccc1CSc1[nH]c(=O)ncc1C
    -16%, 0%, -3.3%, /

Source: PubChem BioAssay (National Center for Advancing Translational Sciences (NCATS))
